Tgondii IFNg = T. gondii growth inhibition with IFN-gamma, primary screen, cell-based. Toxoplasma gondii growth in IFN-gamma-treated host cells; stronger effect = lower value; reference of the scale not given here. activity change, negative = inhibition, %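 (about 20 µM by stock and volumes)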. hit rate 3.8% among 69,000. AID 1259416, 2018;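 active means below -70%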;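 further: host cells are HeLa cells infected with Toxoplasma gondii; parasite growth read as luciferase light; one replicate is shown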
Active calls of the source: *. An excerpt (hit frequency here may not be typical).

SMILES	Tgondii IFNg
CC(=O)Nc1ccc(C(=O)N(Cc2cccc(C)c2)C2(C(=O)NCc3ccccc3)CCN(C(C)=O)CC2)cc1	20
C[C@H](CO)N1C[C@H](C)[C@H](CN(C)C(=O)Nc2ccc(C(F)(F)F)cc2)Oc2ncc(C3=CCCC3)cc2C1=O	149
Cc1nc(CN2CCC=C(CNC(=O)C3CCCCC3)C2)cc(=O)[nH]1	10
O=C(Nc1c(C(=O)NCc2cccnc2)[nH]c2ccccc12)c1ccc(Cl)cc1	-56
Cc1noc(C)c1S(=O)(=O)N(C)C[C@H]1OCCCC[C@@H](C)Oc2ccc(NS(=O)(=O)c3cn(C)cn3)cc2C(=O)N([C@H](C)CO)C[C@@H]1C	85
C=CCNc1nc2c(c(=O)n(C)c(=O)n2C)n1CC(=C)C	7
O=C(NCc1cn[nH]c1-c1ccc(F)cc1)c1cccc(Cn2cccn2)c1	12
CC1CCc2c(sc3nc(SCC(=O)N(C(C)C)C(C)C)[nH]c(=O)c23)C1 (stereo not drawn)	-22
NCc1n[nH]c(=O)n1-c1ccc2c(c1)OCO2	16
O=C(Nc1cccnc1)C1Cn2ccnc2C2(CCN(Cc3ccccc3)CC2)O1 (stereo not drawn)	-8
CCOc1ccnc(N2CCN(CC(=O)NC(C)C)CC2)n1	-7
NCCCCCc1cnc[nH]1	15
COCC(=O)N1[C@H](C(=O)Nc2ccccc2)[C@@H](CO)[C@@H]2Cn3c(ccc(-c4ccncc4)c3=O)[C@@H]21	1
CC(C)Cc1noc(C(C)NC2CCC3(CCNCC3)CC2)n1 (stereo not drawn)	-9
CNC(=O)c1cc2c(nc1NCC(C)C)CCN(Cc1c(C)noc1C)CC2	-53
Cc1ccccc1OCC(=O)NCCc1csc(-c2ccc(Cl)cc2)n1	-14
CC(=O)N1CCN2C(=O)C1CCCC(=O)c1cc(C(C)C)ccc12 (stereo not drawn)	3
C/C=C/c1ccc2c(c1)O[C@H](CN(C)C(=O)Nc1ccc(OC)cc1)[C@H](C)CN([C@H](C)CO)S2(=O)=O	132
Cc1ccc(N2CCc3sc(C(=O)NCCN(C)C)cc32)nn1	-66
CCC(NC(=O)c1cn2c(n1)CCCC2)c1cccs1 (stereo not drawn)	-25

6 entries from above, reformatted:
structure,Tgondii IFNg
COCC(=O)N1[C@H](C(=O)Nc2ccccc2)[C@@H](CO)[C@@H]2Cn3c(ccc(-c4ccncc4)c3=O)[C@@H]21,1
CC(C)Cc1noc(C(C)NC2CCC3(CCNCC3)CC2)n1 (stereo not drawn),-9
CNC(=O)c1cc2c(nc1NCC(C)C)CCN(Cc1c(C)noc1C)CC2,-53
Cc1ccccc1OCC(=O)NCCc1csc(-c2ccc(Cl)cc2)n1,-14
CC(=O)N1CCN2C(=O)C1CCCC(=O)c1cc(C(C)C)ccc12 (stereo not drawn),3
C/C=C/c1ccc2c(c1)O[C@H](CN(C)C(=O)Nc1ccc(OC)cc1)[C@H](C)CN([C@H](C)CO)S2(=O)=O,132

(continued)
SMILES	Tgondii IFNg
COCCN(Cc1nc2ccccc2[nH]1)Cc1ccccc1F	-18
CCOc1ccccc1N(Cc1nc(-c2cccc(Cl)c2)oc1C)S(=O)(=O)c1cccs1	-38
COc1ccc(-c2cc3c(=O)n(Cc4nc(-c5ccccc5C)oc4C)ccn3n2)cc1	-3
O=C(Cc1cccs1)N1CCC2(CC1)Nc1ccccc1-n1cccc12	4
C/C=C/c1ccccc1[C@@H]1[C@@H](CO)N(C(=O)c2cccnc2)[C@H]1C#N	-45
COC(=O)c1ccc(-c2ncc(-c3ccc(N(C)C)cc3)o2)cc1	296
CNC(=O)[C@H]1C[C@@H]2CN(Cc3ccoc3)C[C@@H]2N1C	-2
Cc1ccn2c(C(=O)N(C)Cc3c(C)noc3C)c(C)nc2c1	0
CS(=O)(=O)NCC1CCN(C/C=C/c2ccc(F)cc2)C1 (stereo not drawn)	64
Cc1cccc(Nc2nc(C(=O)Nc3cccc(C)c3C)nc3ccccc23)c1	-40
C/C=C(\C)CN1CCC(OCc2cccnc2)CC1	-6
C[C@@H]1CN([C@@H](C)CO)C(=O)CCCn2nncc2CO[C@H]1CN(C)Cc1cccc2c1OCCCO2	85
Cc1ccc(Nc2nc(-c3nnc(-c4ccc(C)cc4)o3)nc3ccccc23)cc1	42
CCC(=O)N1Cc2cc(C(=O)Nc3nccs3)nc(-c3cccc(-c4ccccc4OC)c3)c2[C@H]1CCO	47
O=C(O)CSCC(=O)NC1CCN(Cc2ccccc2)CC1	-13
CNC(=O)[C@H]1C[C@H]2CCN(Cc3csc(C)n3)C[C@H]2O1	-2
c1coc(CN2CCC3(CC2)NCCc2[nH]cnc23)c1	-17
NCC[C@@H]1CC[C@H](NC(=O)NC2CCCCC2)[C@H](CO)O1	14
CCc1nccn1CCC(=O)N1CCC(c2cc(-c3cncnc3)cc(C)n2)CC1	4
CCN(Cc1ccc(S(C)(=O)=O)cc1)CC1CCOCC1	11
COc1ccc2c3c([nH]c2c1)[C@H](CO)N(C(=O)Nc1ccc(F)cc1)CC31CN(C(=O)c2ccccn2)C1	-32
COc1ccc(-c2nc(Nc3ccc(C)cc3Cl)c3ccccc3n2)cc1	-12
CCN(Cc1cc(Cl)ccc1OC)C(=O)C1(c2ccccc2)CC1	40
OCc1cc2c(cn1)[nH]c1ccccc12	19
Cc1c[nH]c(CN2CCCCC2c2nc3ccc(F)cc3[nH]2)c(C)c1=O (stereo not drawn)	12
O=C1CC(C(=O)Nc2ccc(O)c(C(=O)O)c2)C(c2ccccc2)O1 (stereo not drawn)	-20
Cc1cc2c(cc1O)NC(=O)CC2c1ccc(CN(C)S(C)(=O)=O)o1 (stereo not drawn)	1
CCCOCC1CCN(C(=O)c2ccc3c(c2)C(=O)N(CCC)C3=O)C1 (stereo not drawn)	3
CN1C(=O)c2cc(NC(=O)c3cscn3)ccc2OC[C@H]2O[C@@H](CC(=O)N3CCOCC3)CC[C@@H]21	-11
COCCn1cnc(-c2nc(C(=O)NCc3cnc(C)cn3)c3ccccn23)c1	4
Cc1ccc(-c2ccc(C(=O)NCCCc3ccccn3)cn2)c2cccnc12	5
COCCNC(=O)c1nc2c(s1)CCCN2C(=O)c1ccccc1	223
CCSc1nc(Cc2n[nH]c(Cc3ccccc3)n2)cs1	3
Cc1ccc(NC(=O)CC(=O)N2CCCC3(CCNC3)C2)c(C)c1 (stereo not drawn)	84
CCS(=O)(=O)N1CCC2O[C@H](COCc3ccccn3)CCC21 (stereo partly drawn)	8
CCS(=O)(=O)Nc1ccc2c(c1)C(=O)N(C)C[C@H](OC)[C@@H](C)CN(C(=O)c1ccc3c(c1)OCO3)[C@H](C)CO2	76
C[C@@H]1CN([C@H](C)CO)C(=O)c2cc(N(C)C)ccc2O[C@@H](C)CCCCO[C@H]1CN(C)S(=O)(=O)c1cn(C)cn1	0
Cc1cccnc1CN1CCN(C(=O)C(=O)c2cccs2)CC1	-43
COc1ccccc1Cc1nnc(NC(=O)c2cccc(CN3CCCC3=O)c2)s1	-7
COc1ccc(S(=O)(=O)Nc2ccc3c(c2)C(=O)N([C@H](C)CO)C[C@@H](C)[C@@H](CN(C)S(=O)(=O)c2ccc(Cl)cc2)OCCCC[C@@H](C)O3)cc1	-110*
CCn1c(SCc2nc(-c3ccc(C)cc3)oc2C)nc(=O)c2c(C(=O)OC)cc(C3CC3)nc21	-39
CC(=O)Nc1ccc(NC(=O)CSc2nnnn2C2CCCCC2)cc1	3
CC(C)(C)c1ccc(-c2nc(-c3ccc(Cl)cc3)no2)cc1	-23
Cc1occc1C(=O)N1CCOCC2(CCN(c3ncccn3)C2)C1 (stereo not drawn)	-3
CN(Cc1ncc[nH]1)C(=O)C1CCCN(C2CCN(Cc3ccncc3)CC2)C1 (stereo not drawn)	5
O=C(Cc1cccnc1)N1CC2(C1)[C@@H](c1ccccc1)[C@@H](CO)N2C(=O)C1CCOCC1	80
COc1ccc(CN2CC3(COC(C(=O)CCN4CCOCC4)C3)c3ccccc32)cc1 (stereo not drawn)	-36
CO[C@H]1CN(C)C(=O)c2ccc(NC(C)=O)cc2OC[C@H](C)N(C(=O)c2cnccn2)C[C@H]1C	20
COC(=O)[C@@H]1C[C@@H](NC(=O)CCn2cncn2)CN1C	14
Cc1ccccc1NC(=O)Cn1c(=O)cc(C(=O)N2CCOCC2)c2ccccc21	12
Cc1cccc(-c2nc3cnccn3c2NCCC(=O)N2CCC(C)CC2)c1	267
COc1ccc(OC)c(CNc2nc(-c3nnc(-c4cccc(Cl)c4)o3)nc3ccccc23)c1	-103*
COc1ccc(-c2nc(Cn3nnc(-c4nc(-c5cccc(Cl)c5)no4)c3C)c(C)o2)cc1	8
O=S(=O)(n1nccc1C(c1ccccc1)c1ccccc1)C(F)(F)F	5
COc1ccccc1/C=C/CN1CCC(O)(c2cccc(C)c2)CC1	-12
CCn1ncnc1-c1c(-c2ccccc2)ncn1CCc1ccccc1OC	4
O=C(O)COCC(=O)NCc1c(F)cccc1Cl	-14
Cc1ccc(S(=O)(=O)N[C@@H]2C=C[C@@H](CC(=O)NCc3ccc(Cl)c(Cl)c3)O[C@H]2CO)cc1	-53
CCCc1ncncc1C(=O)N1CCCC(O)(CO)CC1 (stereo not drawn)	6
C[C@H]1CN([C@@H](C)CO)C(=O)c2cccc(NS(=O)(=O)c3ccc(F)cc3)c2O[C@H]1CN(C)Cc1ccc(Cl)c(Cl)c1	-78*

Going on with the list:
SMILES	Tgondii IFNg
Cc1cccc(C)c1NC(=O)C(=O)NCCc1csc(-c2ccc(Cl)cc2)n1	-55
Cc1nc2sccn2c1C(=O)NCc1snnc1C(C)C	-2
Cc1ccnc(NC(=O)Cn2ccc3ccc(-c4nnc(C)o4)cc32)c1	19
CCCN1C(=O)CCc2cc(NC(=O)Cc3ccccc3OC)ccc21	72
O=C(Cn1ncc2c(N3CCN(c4ccccc4)CC3)ncnc21)Nc1ccccc1C(F)(F)F	-33
Cc1nc(N2CCN(C)CC2)ncc1C(=O)N1C[C@H]2C[C@H](O)[C@@H](O)C[C@H]2C1	6
COc1cc(C)c(S(=O)(=O)N(C)Cc2nnc(-c3ccccc3)o2)cc1C(C)C	8
Cc1cccc(C(=O)N2CCC3OCCCC3(COCC3CC3)C2)n1 (stereo not drawn)	2
CCN(CC)C(=O)CC1CC2(CCN(C(=O)CC3CC3)CC2)Oc2ccccc21 (stereo not drawn)	-15
O=C(C1COc2ccccc2C1)N1CCC(Cn2cc(CCO)nn2)CC1 (stereo not drawn)	-4
COCC(=O)Nc1ccc2c(c1)C(=O)N(C)[C@@H]1CC[C@H](CC(=O)NC3Cc4ccccc4C3)O[C@H]1CO2	-11
CC(=O)NCc1cnc(C2CCCN2CC(=O)Nc2nccs2)cc1C(F)(F)F (stereo not drawn)	-12
CCCC(=O)Nc1cc(C(=O)NCCC2CCCN2C)ccc1C (stereo not drawn)	4
O=C(CN1CCOC1=O)N1CC(=O)N(C2CCCCC2)CC(OCc2ccccc2)C1 (stereo not drawn)	1
Cc1nn(-c2ccccc2)nc1CNC(=O)c1ccc2nsnc2c1	3
CS(=O)(=O)NC1CCN(c2nc(-c3ccccc3)nc3c2CCC3)CC1	-14
CC(C)NC(=O)Nc1ccc2c(c1)C(=O)N([C@@H](C)CO)C[C@H](C)[C@@H](CN(C)C(=O)C1CCCCC1)OCCCC[C@@H](C)O2	200
CSCCC(CC(=O)O)NC(=O)c1cccs1 (stereo not drawn)	31
CC(C)N1CCOCC2(CN(C(=O)c3cccn3C)CCO2)C1 (stereo not drawn)	-23
CCOc1ccccc1-c1nc(Cn2c(=O)c3cccnc3n(-c3ccccc3)c2=O)c(C)o1	-14
O=C(COc1ccccc1F)NCCc1csc(-c2cccc(F)c2)n1	-26
CCOCC1CN(C(=O)c2cc(C)on2)Cc2cn(CC3CC3)nc21 (stereo not drawn)	-2
COc1ccccc1-n1nc(C(C)C)nc1Cc1cc(C)no1	-8
CO[C@@H]1CN(C)C(=O)c2ccc(NC(C)=O)cc2OC[C@@H](C)N(C(=O)c2cnccn2)C[C@H]1C	15
O=C(CN1CCC(Cc2ccccc2)CC1)N1CCC(N2CCCC2)CC1	-24
COc1nc2ccccc2cc1-c1cncc(C(N)=O)c1	45
CC(=O)[C@@]12O[C@](C)(c3ccccc3)O[C@@H]1CC1C3CCC4=CC(=O)CC[C@]4(C)C3CC[C@@]12C (stereo partly drawn)	-2
Cn1cc(CN2CCCC3(COCCN(c4ccccc4)C3)C2)cn1 (stereo not drawn)	-46
Cc1ccc(NC(=O)CC(=O)N(C)Cc2cn[nH]c2-c2ccc(F)cc2)c(C)c1	-2
COCC(=O)N(C[C@H]1[C@H](c2ccccc2)[C@@H](CO)N1C(=O)NC(C)C)C(C)C	12
Cc1nn(C)c(C)c1NC(=O)c1cccc(CN2CC[C@H](O)C2)c1	-4
Cc1c(-c2ccccc2)n(-c2ccccc2)c2ccccc12	-90*
CCNC(=O)C1CCN(C(=O)CSc2n[nH]c(CC)n2)C1 (stereo not drawn)	26
COc1ccccc1Cc1cncc(N2CC(C(=O)O)C2)n1	-2
O=C(O)C1CC(=O)N(CCC2=CSC3=NCCCN23)C1 (stereo not drawn)	3
Cc1nc(CN2C(=O)C[C@H]3[C@H]2CCN3Cc2ccoc2)cs1	2
Cc1cc(C)c2nc(NC(=O)c3ccc(C4CCCN(S(C)(=O)=O)C4)nc3)sc2c1 (stereo not drawn)	-58

3 structures out of the list, ordered by count of non-hydrogen atoms, lowest first:
SMILES	Tgondii IFNg
COc1ccccc1Cc1cncc(N2CC(C(=O)O)C2)n1	-2
Cn1cc(CN2CCCC3(COCCN(c4ccccc4)C3)C2)cn1 (stereo not drawn)	-46
CO[C@@H]1CN(C)C(=O)c2ccc(NC(C)=O)cc2OC[C@@H](C)N(C(=O)c2cnccn2)C[C@H]1C	15

Screens: PubChem, Broad Institute
